NPYLR7 ag: activates Aedes aegypti NPYLR7 receptor | HEK293T NPYLR7/Galpha15, GCaMP6s calcium fluorescence | activation, % at 10 µM | 270,000 tested, 0.15% active | AID 1259423; in the data active means activation above about 40%;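 further: 0% = vehicle and 100% = reference agonist at the receptor; some compounds past the cut are filed as inactive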
NPYLR7 ag max-min: also measured in NPYLR7 ag; calls as there; activation, %; measured here: Max-Min RFU normalised activation; some inactives read as strong as hits;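 span of the calcium signal over five minutes; 0% = vehicle and 100% = native peptide agonist; compound fluorescence can raise it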
Numbers without * were called inactive; & = joins results of further samples. This is a subset; the hit share may differ from the screen's.

Under each structure: NPYLR7 ag max-min, NPYLR7 ag
O=C(O)c1ccc2c(c1)n(CC1CCCO1)c(=O)n2CC1CC1 (stereo not given)
 : -9, -4
Cc1ccn(-c2ccc(NCC(=O)NCC(C)C)nn2)n1
 : 5, 7
CCNc1nc(SC(C)C(=O)NC2CCS(=O)(=O)C2)nc2ccccc12 (stereo not given)
 : 5, 8
COc1ccccc1CNC(=O)c1ccc(C)c(NC(=O)C2CC2)c1
 : 2, 16
O=C(Nc1ccc(NC(=O)N2CCCCCC2)c(C(F)(F)F)c1)c1ccoc1
 : -5, -5
O=C(Nc1cc(C2CCCC2)[nH]n1)c1cccnc1Oc1cccnc1
 : 6, 3
Cc1ccoc1C(=O)N(C)CCn1cc(C(=O)N2CCSCC2)nn1
 : 10, 16
Cc1nnc(NC(=O)CSc2nnc(N)s2)s1
 : 16, 9
S=c1n(CN2CCOCC2)nc2c(Cl)cc(Cl)cn12
 : 37, 5
Cc1ccc(-n2nnnc2-c2nc3ccccc3[nH]2)c(C)c1
 : 6, -1
Cc1ccccc1C(C)NC(=O)Nc1ccc(S(C)=O)cc1 (stereo not given)
 : -23, -22
Cc1cc(NC(=O)Cc2ccc(F)cc2)n(-c2ncnc3c2cnn3-c2ccc(F)cc2)n1
 : 6, 4
COc1ccccc1OCc1cc(C(=O)NC(C)C2=CCCCC2)n[nH]1 (stereo not given)
 : 7, 15
Cc1nn(C(C)C(=O)NCc2ccco2)c(=O)c2cc3occc3n12 (stereo not given)
 : 4, 8
O=C(c1ccccc1F)N1CCN(Cc2ccccc2)CC1
 : -6, 2
CC(C)c1nc(SCC(=O)N(C)CCOc2ccc(Cl)cc2)n[nH]1
 : 15, 24
CC(C)NC(=O)C1CCN(C2CCN(Cc3cccn3-c3cccnc3)CC2)CC1
 : 1, 5
COc1cccc2sc(N(Cc3cccnc3)C(=O)C3=COCCO3)nc12
 : -9, -10
Cc1cc(=O)n2[nH]c(-c3ccccc3)c(C)c2n1
 : 35, 0
NC(=O)NCC1CCCN(C(=O)NC2CCCCc3ccccc32)C1 (stereo not given)
 : 0, 3
Nc1cncc(-n2cnc3ccccc32)c1
 : 0, 1
Cc1ccc(C#N)cc1S(=O)(=O)Nc1ccc2n[nH]nc2c1
 : 0, 0
Cc1cc(C)nc(SCc2cc(=O)c(OC(=O)COc3ccccc3C)co2)n1
 : -10, -15
CC(C)NC(=O)C1CCN(C2CCN(C3CCSCC3)CC2)CC1
 : -5, -3
O=C(c1cc(C2CC2)nc2ccccc12)N1CCN(S(=O)(=O)c2ccc3c(c2)CCC3)CC1
 : 9, 12
Cc1cc(C)cc(-c2nc3cc(C)ccn3c2NC(=O)COCc2ccccc2)c1
 : 6, -2
CCOc1ccc(C(=O)Nc2c(C)nc3ccccn3c2=O)cc1OCC
 : -3, -2
C=C(C)Cn1c(=O)c2c(nc3n2CCN3c2ccc(CC)cc2)n(C)c1=O
 : -2, 1
O=C(CN1CCOCC1)N(C1CCCCC1)C1CCS(=O)(=O)C1 (stereo not given)
 : 3, 4
CCCCn1c(N=Cc2c[nH]c3ccccc23)nc2ccccc21
 : 27, 0
CCn1nnc2c(SCc3ccccc3)ncnc21
 : 23, -1
CC1CC(C)CN(C(=O)CN2C(=O)NC3(CCOc4ccccc43)C2=O)C1 (stereo not given)
 : 3, 3
c1cc(-c2ccco2)cc(-c2nccn2CCN2CCOCC2)c1
 : 9, 17
CC(NS(=O)(=O)c1ccc(Br)s1)c1cccnc1 (stereo not given)
 : 3, 9
Cc1ccc(S(=O)(=O)NC2CC2)cc1C(=O)N(C)c1ccccc1
 : 0, 0
COc1ccccc1-c1nn(-c2ccccc2)c(OC(C)=O)c1-c1ccc(N)cc1
 : 31, 34
C=CCNc1nc(-c2ccccc2)cc(C(F)(F)F)c1C#N
 : -8, -5
COCCCNC(=O)c1cc2n(n1)CCN(Cc1cccc(F)c1)C2=O
 : 11, 15
COc1ccc(C(C)=O)cc1Cn1c(C)c(C(=O)NC2CC2)sc1=O
 : -3, -3
COc1cc(OC)c(OC)cc1CNCc1ccnc(N2CCOCC2)c1
 : -3, -3

Reprinted at random: 4 entries already listed, in no set order.
Under each structure: NPYLR7 ag max-min, NPYLR7 ag
Cc1ccc(C#N)cc1S(=O)(=O)Nc1ccc2n[nH]nc2c1
 : 0, 0
CC(C)NC(=O)C1CCN(C2CCN(C3CCSCC3)CC2)CC1
 : -5, -3
O=C(c1cc(C2CC2)nc2ccccc12)N1CCN(S(=O)(=O)c2ccc3c(c2)CCC3)CC1
 : 9, 12
Cc1cc(C)cc(-c2nc3cc(C)ccn3c2NC(=O)COCc2ccccc2)c1
 : 6, -2

(more compounds)
Under each structure: NPYLR7 ag max-min, NPYLR7 ag
CCc1ccccc1NC(=O)C(=O)N1CCCn2nc(C(=O)N3CCCC3)cc2C1
 : 1, 3
CCCCCCCCOc1ccc(/C=C/C(=O)Nc2nnc(SCC)s2)cc1
 : -10, -3
COCCNCC(=O)N(CCc1ccccc1)Cc1ccco1
 : -17, -9
CC(C)n1cnnc1CN(C)C(=O)[C@@H]1C[C@H]1c1ccccc1
 : -2, -1
CC(=O)Nc1cccc(-c2ccc3[nH]ncc3c2)c1
 : 12, 8
N#CC1(NC(=O)c2ccc(Sc3ccccc3Cl)nn2)CC1
 : -3, 0
COc1ccc(-c2cc(C(=O)N3CCC(n4c(=O)[nH]c5ccccc54)CC3)n3nc(-c4ccc(Cl)cc4)cc3n2)cc1
 : 5, -2
CCOc1cc([C@@H](CS(C)(=O)=O)N2C(=O)c3cccc(NC(C)=O)c3C2=O)ccc1OC
 : 1, 17
O=C1CC(c2ccccc2)CN1Cc1nc(Cc2ccccc2)n[nH]1 (stereo not given)
 : -1, 3
O=C(c1ccc(-c2ccnc3[nH]ccc23)o1)N1CCCCC1
 : 0, 2
CC1Cc2cc(CNC(=O)c3cc(C(C)C)nn3C)ccc2O1 (stereo not given)
 : 2, 10
CCOC(=O)C1(Cc2ccc(F)cc2)CCCN(C(=O)CCc2cn3ccccc3n2)C1 (stereo not given)
 : -3, 8
O=C1CSC(c2cc3c(cc2Br)OCO3)N1c1ccccc1F (stereo not given)
 : -1, -4
O=C(c1cc2sc(Br)cc2n1Cc1ccccc1)N1CCCC1
 : 5, 4
O=C(C1CCN(c2nc(Cc3ccc(F)cc3)ns2)CC1)N1CCN(c2ccc([N+](=O)[O-])cc2)CC1
 : 10, 3
CCOc1ccc(CC(=O)Nc2c(C)nc3ccc(Cl)cn3c2=O)cc1
 : -4, -5
O=C(COc1ccc(OCC(=O)Oc2ccccn2)cc1)Oc1ccccn1
 : -1, -3
O[C@H]1C[C@@H]2CN(c3nccc(CCC(F)(F)F)n3)C[C@@H]2C[C@@H]1O
 : 2, 15
O=C(Cn1nc2c(c1NC(=O)CC1CCCCC1)CSC2)NCc1ccc(F)cc1
 : 1, 2
CC(C)c1ccc(C(=O)N2CCN(Cn3[nH]c(C(C)(C)C)nc3=S)CC2)cc1
 : 4, 8
C#CCN(CC=C)C(=O)c1cc(COc2cccc(C(F)(F)F)c2)on1
 : 4, 13
OCCC1CN(Cc2cnc(-c3ccccc3)s2)CCN1Cc1ccsc1 (stereo not given)
 : 6, 5
Cc1cc(C(=O)NCCC(=O)N2CCC(C(=O)N3CCCCC3)CC2)n(C)n1
 : 2, -2
Cc1nn(-c2ccc(F)cc2)c2nc(Cc3ccccc3)nc(N3CCCN(C(=O)c4cccs4)CC3)c12
 : 3, 8
CCN(CCc1ccccn1)C(=O)CC1CC2(CCNCC2)c2ccccc21 (stereo not given)
 : 15, 2
CC(C)NC(=O)NCCOc1ccc(F)c(F)c1
 : 3, 5
O=C(Nc1nnc(C2CC2)s1)c1cn(-c2ccc(Br)cc2)nn1
 : 5, 9
CC(=O)NCC(=O)N1CCN(Cc2ccc(-c3noc(-c4cccs4)n3)cc2)CC1
 : 17, 26
COCCn1c(CN2CCC(Cc3ccccc3)CC2)nc2c1c(=O)n(C)c(=O)n2C
 : 1, 5
CC1(C)NC(=O)N(Cc2coc(-c3ccc(Cl)cc3)n2)C1=O
 : 4, 4
O=C(CC1CCCCC1)NCCOc1ccc(-c2ccccc2)nn1
 : 0, 2
Cc1c(C(C)NC(=O)c2cc(C(F)(F)F)ccc2Cl)cnn1-c1ccccn1 (stereo not given)
 : 3&-1, 9&2
O=C(NCc1ccccc1)C1COC2(CCCCC2)N1C(=O)c1cccs1 (stereo not given)
 : 0, -3
Cc1cccc(Nc2ccc(NCCNC(=O)Nc3ccc(F)cc3)nn2)n1
 : 3, 8
Cc1cccc(NC(=O)Nc2ccc(Nc3ccc(-n4cccn4)nn3)cc2)c1
 : -8, -3
COc1cc(C)ccc1-c1csc(-c2ccccc2N)n1
 : 5, 14
CC(=O)N1CCC(C(=O)Nc2nccs2)(c2ccccc2)CC1
 : -1, 0
O=C(Nc1ccc2c(c1)OCO2)N1CCCC1c1ccccn1 (stereo not given)
 : 5, 7
Cc1nc(CSCC(=O)N(Cc2ccccc2)CC(C)O)no1 (stereo not given)
 : 0, 3
Cc1oc(-c2cccs2)nc1CN1CCCC(c2ccccc2)C1 (stereo not given)
 : -6, 8
COc1cc(C)ccc1OCc1cc(C(=O)NCCCOC(C)C)no1
 : -4, -2
O=S(=O)(c1ccccc1Cl)N1CCN(Cc2ncc(-c3ccccc3)o2)CC1
 : 14, 10
Fc1ccccc1-c1nnn(Cc2ccc3c(c2)OCO3)n1
 : -3, 0
O=C(NCCCc1nnc2ccccn12)c1ccccc1C1CCNC1 (stereo not given)
 : 0, 1
CCOC(=O)N1CCN(C(=O)c2csc(-c3cc4ccccc4n3C)n2)CC1
 : -1, 1
Fc1ccccc1-n1c(SCc2cccc(C(F)(F)F)c2)nnc1-c1cccnc1
 : -1, -3
CC(C)c1nc2sc3ccccc3c(=O)c2c(=O)n1Cc1ccccc1
 : -1, -3
CCCCN(CC(=O)N(CCc1c[nH]c2ccccc12)Cc1ccc(OC)cc1)S(=O)(=O)c1ccc(Cl)cc1
 : 18, 16
COc1ccc(OC)c(-c2cc(C(=O)NCCC(=O)O)no2)c1
 : 14, 26
Cc1ccccc1NC(=O)CN(C)c1ccccc1
 : -2, -1
CC(=O)Nc1ccc(Nc2cc(N3CCCCC3)c3nonc3c2[N+](=O)[O-])cc1
 : -2, 0
O=C1OC(/C=C\c2cccc([N+](=O)[O-])c2)=NC/1=C/c1cccnc1
 : -2, 3
COCC(=O)N1CCCC(OCc2ccc(Br)cc2)C1 (stereo not given)
 : -9, -11
COc1cccc(CCn2ccnc2-c2ccccn2)c1
 : 25, 2
Cc1cccc(CC(=O)Nn2cnc3c(cnn3-c3ccccc3)c2=O)c1
 : -1, 5
CN(C)CCCN(C(=O)c1ccc(Br)s1)c1nc2ccc(Cl)cc2s1
 : 3, 5
CCN(CC)CCN(C)CC1CCCCC1
 : -19, -12
O=C(c1ccccc1F)N1CCSC1c1cccc(F)c1 (stereo not given)
 : 13, 12
CNC(=O)NC(=O)C(C)Nc1ccc(OC2CCCC2)cc1 (stereo not given)
 : 2, 3
CSc1ccc(CN2CCC2(C)C(=O)NCCc2ccccc2)cc1 (stereo not given)
 : -2, 1

Other results.
Under each structure: NPYLR7 ag max-min, NPYLR7 ag
CC(=O)NCc1cccc(/C=C/c2ccccc2)c1
 : 2, 4
C=CCOC(=O)C1C(C)=Nc2nc(SCC(C)C)[nH]c(=O)c2C1c1cccc(F)c1 (stereo not given)
 : -8, -5
O=c1cc(-c2ccc(F)cc2)[nH]n1-c1nc2ccccc2[nH]1
 : 18, 0
Cc1nc(NC(=O)CN2CCC(Cc3ccccc3)CC2)sc1C(=O)N(C)C
 : -9, -8
CSc1ccc(OC(C)C(=O)NCC2CCCN(C)C2)cc1 (stereo not given)
 : 20, 1
CC(=O)c1c(C)nc2ccc([N+](=O)[O-])cc2c1-c1ccccc1
 : -2, 0
COC(=O)c1c(C)c(C(=O)C(C)N(Cc2ccco2)C(=O)c2cc(OC)cc(OC)c2)c(C)n1C (stereo not given)
 : -6, -12
COc1cc2c(cc1OC)CN(c1ncccc1[N+](=O)[O-])CC2
 : 0, -1
CCOC(=O)Nc1ccc(C(=O)N2CC(C)OC(C)C2)cc1 (stereo not given)
 : 5, 8
O=C(C1CNCCN1C(=O)c1ccc(Cn2cnnn2)cc1)N1CCCC1 (stereo not given)
 : -1, 1
CCCSc1ncccc1C(=O)N1CCN(Cc2cc(=O)c(OCc3cc(C)cc(C)c3)co2)CC1
 : 16, 24
COCCN(Cc1ccc(OS(=O)(=O)c2cccc(C(F)(F)F)c2)cc1)C(=O)c1cccc(Br)c1
 : 21, 20
COc1ccccc1C(=O)N(Cc1c(-c2ccccc2)noc1N(C)C(C)C)C(C)C
 : 15, 12
COc1cc(C2c3cccn3CCN2C(=O)Nc2cccs2)cc(OC)c1OC (stereo not given)
 : 8, 15
CC1(c2ccc3c(c2)OCO3)NC(=O)N(Cc2ccc(Cl)cc2)C1=O (stereo not given)
 : 2, 6
CC(C)(C)c1ccc(C2=N/C(=C\c3cccnc3)C(=O)O2)cc1
 : 2, 0
O=S(=O)(Nc1nc2ccccc2nc1Nc1ccccc1)c1ccc(Br)s1
 : 2, 4
CCn1cc(C(=O)N(Cc2ccccn2)CC(C)C)c(=O)c2ccc(C)nc21
 : 2, 2
CCN(CCCNS(=O)(=O)c1c(C)noc1C)c1ccccc1
 : -5, -3
CCN(CC)C(=O)Oc1ccc2c(ccn2Cc2cc(C(F)(F)F)cc(Cl)c2F)c1-c1ccc(C#N)cc1
 : 2, 4

Compounds above with a COOH group:
Under each structure: NPYLR7 ag max-min, NPYLR7 ag
O=C(O)c1ccc2c(c1)n(CC1CCCO1)c(=O)n2CC1CC1 (stereo not given)
 : -9, -4
COc1ccc(OC)c(-c2cc(C(=O)NCCC(=O)O)no2)c1
 : 14, 26
